From PubChem BioAssay
KCNQ2 pot: potentiators of rat KCNQ2 potassium channel; O88943; CHO-K1 KCNQ2, FluxOR thallium flux fluorescence; stronger effect = higher value; B-score at 10 µM; 310,000 tested, 0.54% active;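 active = fluorescence ratio B-score at least 3 SD of library B-scores, with initial fluorescence B-score within 3 SD, cut at about 5.3 in these data; same plate scores as AID 2156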;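 also: B-score of peak minus minimum over baseline fluorescence ratio after K+ and Tl+ stimulus; positive B-score means potentiation of KCNQ2 with more thallium influx and brighter signal; only the inactives scoring about 0 or higher are listed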
Target sequence (O88943 whole entry, looked up): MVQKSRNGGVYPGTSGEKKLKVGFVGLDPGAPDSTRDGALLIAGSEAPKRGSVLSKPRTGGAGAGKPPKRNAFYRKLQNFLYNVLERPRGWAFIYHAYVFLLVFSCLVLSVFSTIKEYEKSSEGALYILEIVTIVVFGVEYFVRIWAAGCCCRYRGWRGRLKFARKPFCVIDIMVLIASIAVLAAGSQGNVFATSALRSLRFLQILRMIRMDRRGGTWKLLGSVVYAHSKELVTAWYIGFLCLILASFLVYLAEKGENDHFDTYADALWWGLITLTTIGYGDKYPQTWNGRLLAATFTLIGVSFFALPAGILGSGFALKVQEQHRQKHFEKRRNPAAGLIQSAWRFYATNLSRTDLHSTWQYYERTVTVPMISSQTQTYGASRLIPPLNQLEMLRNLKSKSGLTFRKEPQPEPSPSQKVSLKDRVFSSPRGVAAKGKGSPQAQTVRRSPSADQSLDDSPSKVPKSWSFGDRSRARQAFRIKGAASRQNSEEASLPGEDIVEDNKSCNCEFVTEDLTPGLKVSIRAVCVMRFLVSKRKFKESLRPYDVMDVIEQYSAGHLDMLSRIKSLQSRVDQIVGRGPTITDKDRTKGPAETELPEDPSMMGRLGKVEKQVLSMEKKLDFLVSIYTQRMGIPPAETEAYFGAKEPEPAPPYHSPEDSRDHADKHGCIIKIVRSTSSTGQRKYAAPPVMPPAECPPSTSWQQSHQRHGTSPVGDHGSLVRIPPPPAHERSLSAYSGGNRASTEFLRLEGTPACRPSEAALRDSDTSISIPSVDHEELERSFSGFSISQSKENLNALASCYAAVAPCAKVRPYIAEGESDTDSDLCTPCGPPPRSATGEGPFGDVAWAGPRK
KCNQ2 pot baseline: recorded beside KCNQ2 pot, whose call it bears; B-score; compound at 10 µM; measured here: initial fluorescence intensity artifact check;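 brightness before thallium and not channel activity; 0 = typical well and far values either way flag optical interference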
Active calls of the source: *.

Below each compound – KCNQ2 pot | KCNQ2 pot baseline
Cc1nnc(SC2CC(=O)N(c3ccccc3)C2=O)s1 (configuration not stated)
    0.73 | -1.56
Cc1cc(NC(=O)CN2CCN(S(=O)(=O)c3ccc(Cl)cc3)CC2)no1
    0.52 | -0.08
CCC(C)NC(=O)c1ccc(CSc2nc3ccncc3n2Cc2ccc(F)cc2)cc1 (configuration not stated)
    0.29 | -1
COc1ccccc1N(CC(=O)N1CCN(c2ccc(F)cc2)CC1)S(=O)(=O)c1ccc(C)cc1
    0.27 | 1.81
C/C(=N\NC(=O)Cc1ccc([N+](=O)[O-])cc1)c1cccnc1
    0.69 | -0.97
CN1C(=O)N(C)C2C1NC(=O)N2C (configuration not stated)
    0.1 | 1.43
CCNC(=S)N1CCCC(C(N)=O)C1 (configuration not stated)
    0.83 | 1.23
CCC(=O)OCC(=O)Nc1cc(S(=O)(=O)N(C)C)ccc1Cl
    0.19 | 2.92
Cc1ccc2c(c1)nnn2C1CCN(S(=O)(=O)c2cccc(S(=O)(=O)N(C)C)c2)CC1
    1.43 | 1.02
COc1ccc(-c2ccc3c(N)c(C(=O)NC(C)C)sc3n2)cc1OC
    1.48 | -2.16
O=C(CN1CCOCC1)Nc1ccc(Cl)c(Cl)c1
    1.67 | 0.06
COC(=O)c1ccc2c(=O)[nH]c(CCl)nc2c1
    0.48 | -0.03
CCCCc1cc(=O)oc2cc(OCC(=O)NCCN3CCOCC3)ccc12
    1.2 | -1.73
COCCn1c(C)cc(/C=C(\C#N)C(=O)OCC(=O)N(C)c2c(N)n(Cc3ccccc3)c(=O)[nH]c2=O)c1C
    0.81 | 0.64
CC(C)C(=O)Nc1cccc(-c2nc3ccccc3c(=O)o2)c1
    0.54 | -0.93
Cc1ccc(S(=O)(=O)N2CCOCC2)cc1NC(=O)COC(=O)c1ccc2c(c1)OCCO2
    2.35 | -1.62
COc1ccc(S(=O)(=O)NCc2ccc(C(=O)NCc3cccnc3)cc2)cc1
    1.28 | 0.02
CC(C)CCNC(=O)NC(=O)COC(=O)/C=C/c1cc(Br)ccc1F
    0.17 | 0.64
CCCCC(CC)C(=O)Nc1cccc(SC)c1 (configuration not stated)
    0.46 | 1.08
C=CCN1C(=O)/C(=C\c2ccc(OC(=O)c3ccco3)c(OC)c2)SC1=S
    0.04 | -1.6
O=c1c2ccccc2cnn1Cc1nnc(-c2cccs2)o1
    1.42 | 0.17
CCN1CCCC1CNC(=O)Cn1cc2c(n1)CCC(C)C2 (configuration not stated)
    0.77 | 1.42
O=C(O)c1ccc2nc(CO)[nH]c2c1
    0.77 | -0.73
O=C(NCCSc1c[nH]c2ccccc12)c1ccco1
    1.12 | -1.95
N/C(=N\OC(=O)c1ccco1)c1cccc(Br)c1
    2.76 | -0.39
CC(=O)c1cccc(NC(=O)/C(=C\c2cccnc2)NC(=O)c2ccco2)c1
    0.01 | -0.01
COC(=O)Cc1cc(=O)n2[nH]c(C(F)(F)F)nc2n1
    0.94 | -1.55
CC1=CC(C)(C)[N+](C)(C)c2ccc(C)cc21
    0.02 | 2.59
Cc1ccc(C(=O)Nc2ccc(-c3csc(C)n3)cc2)cc1
    0.88 | 0.65
CCOc1ccc(NC(=O)CNC(=O)COc2ccccc2)cc1
    1.04 | -0.45

5 of the entries above in order of the KCNQ2 pot baseline value, low to high.
Below each compound – KCNQ2 pot | KCNQ2 pot baseline
COC(=O)Cc1cc(=O)n2[nH]c(C(F)(F)F)nc2n1
    0.94 | -1.55
O=C(O)c1ccc2nc(CO)[nH]c2c1
    0.77 | -0.73
CCOc1ccc(NC(=O)CNC(=O)COc2ccccc2)cc1
    1.04 | -0.45
CCN1CCCC1CNC(=O)Cn1cc2c(n1)CCC(C)C2 (configuration not stated)
    0.77 | 1.42
CC1=CC(C)(C)[N+](C)(C)c2ccc(C)cc21
    0.02 | 2.59

(cont.)
Below each compound – KCNQ2 pot | KCNQ2 pot baseline
COCCCNC(=O)c1ccc(S(=O)(=O)c2ccc(C)cc2)c(NC(C)=O)c1
    1.13 | -0.8
Cc1ccc(OCCCn2cc(C#N)c3ccccc32)cc1
    0.13 | 1.03
Cc1occc1-c1nnc(SCC(=O)N2CCc3ccccc32)o1
    0.07 | 0.22
COc1cccc2c(=O)cc(C)n(CC(=O)Nc3ccccc3C)c12
    0.53 | -1.98
CCOc1ncccc1C(=O)NCc1ccc(C)cc1
    0.58 | 0.01
Cn1c(=O)[nH]c2c(nc(-c3ccc(Cl)cc3)n2C)c1=O
    0.03 | 0.9
CC(C)c1c(Cl)c(O)c(-c2ccccc2)c(=O)n1-c1ccc(F)cc1
    0.14 | -0.82
CC(CNS(=O)(=O)c1cc(Cl)ccc1Cl)CN(C)C (configuration not stated)
    0.15 | -1.34
CCC(=O)Nc1c(C(=O)N2CCN(c3ccccn3)CC2)cnn1-c1ccc(C)cc1
    1.28 | -1.68
O=C(CSc1nc2ccccc2c(=O)n1-c1ccc(F)cc1)NCc1ccco1
    0.15 | -0.58
Cc1ccc(C)c(N2CCN(C(=O)c3ccc(Cl)c(NC4=NC5CS(=O)(=O)CC5S4)c3)CC2)c1 (configuration not stated)
    1.78 | 0.81
COCCn1nnnc1SCC(=O)c1ccc(F)cc1
    1.03 | -1.2
Cc1ccccc1Cn1nc(C)c(NC(=O)c2nc3n(n2)C(C(F)F)CC(C)N3)c1C (configuration not stated)
    0.02 | 0.3
CN=C(Nc1ccc2c(c1)OCO2)SC1CC(=O)N(c2ccccc2)C1=O (configuration not stated)
    2.06 | -1.45
CC(=O)NC1(c2ccccc2)CCN(c2cc(C)nc(-c3ccccc3)n2)CC1
    1.96 | -2.62
O=C(N/N=C/c1ccc(Br)o1)c1ccc2c(c1)OCCO2
    2.48 | -0.76
CCNC(=S)NNC(=O)c1csc(CC)c1
    1.35 | 1.49
S=c1[nH]nc(COc2ccc(Cl)cc2Cl)n1-c1ccccc1
    0.96 | 1.38
COc1ccc(S(=O)(=O)N2CCCC(C(=O)Nc3cccnc3)C2)cc1Cl (configuration not stated)
    0.66 | 0.32
CCOC(=O)C1=C(C)NC(=O)NC1c1ccc(OC)c(Cl)c1 (configuration not stated)
    0.69 | -0.1
COc1ccc(C(=O)/C=C/N(C)C)cc1OC
    1.76 | 0.62
O=C(Nc1cccc(Cl)c1Cl)Nn1cnnc1
    0.35 | -0.69
O=C(NN1C(=O)C2C3C=CC(O3)C2C1=O)c1cccc(O)c1 (configuration not stated)
    0.93 | 1.79
COc1ccc2ccccc2c1/C=N/NC(=O)c1sc(N)c(C#N)c1C
    1.46 | -0.85
N=c1c2c(ncn1CCCO)Oc1ccc3ccccc3c1C2c1ccccc1 (configuration not stated)
    0.76 | -1.72
CN1CCN(c2ccc(NC(=O)c3ccc(Br)o3)cc2)CC1
    1.77 | -0.69
C=CCN(c1ccccc1)S(=O)(=O)c1cccc(C(=O)N(CC)CC(=O)Nc2c(F)cccc2F)c1
    0.27 | -0.44
COC(=O)c1cc(NC(=O)Cc2ccc(OC)cc2)cc(C(=O)OC)c1
    1.24 | -2.44
Cc1ccc2[nH]c(=O)c(Cc3ccccc3)c(O)c2c1
    0.3 | 0.02
Cc1ccc(Nc2nc(NCCCN3CCOCC3)nc(N)c2[N+](=O)[O-])cc1
    0.22 | 0.49
COc1ccc(S(=O)(=O)Nc2ccc3c(c2)n(C)c(=O)n3C)cc1C
    0.16 | -0.2
CC1CCN(S(=O)(=O)c2ccc(NC(=O)CNC3CCCCC3)cc2)CC1
    0.52 | 1.24
CC1(C)CC(=O)C(C(=O)CCCCC(=O)C2C(=O)CC(C)(C)CC2=O)C(=O)C1
    1.13 | 1.43
CN(C)c1ccc(C(=S)N2CCN(c3ccccc3)CC2)cc1
    1.02 | 0.27
CCCCNC1=NCCS1
    0.46 | -1.43
CC(C)C[C@H](NC(=O)N1CCn2c1nc1ccccc12)C(=O)NC1CC1
    1.19 | -2.89
O=C(O)Cc1c(-c2ccccc2)c2cc(Cl)ccc2[nH]c1=O
    0.12 | 0.08
CC(C)=CCC/C(C)=C/C=N/NC(=O)c1ccc([N+](=O)[O-])cc1
    0.64 | -0.66
COc1cc(C)c(S(=O)(=O)N2CCN(C)CC2)cc1C
    0.43 | -2.56
CN1C(=O)C(C)(C)c2cc(S(=O)(=O)N3CCCC(C(=O)Nc4ccc(Cl)cc4)C3)ccc21 (configuration not stated)
    2.14 | -2.02
CCN1C(=O)C(O)(CC(=O)/C=C/C=C/c2ccccc2)c2ccccc21 (configuration not stated)
    1.35 | -1.09
COc1ccc(/C=C/C(=O)NCCc2nc3ccccc3[nH]2)cc1
    1.48 | -0.47
Cc1ccc(CC2CC(=O)N(c3ccncc3)C2=O)cc1 (configuration not stated)
    0.59 | 0.58
Cc1cnc(C(=O)OCC(=O)c2ccc(Br)s2)cn1
    0.89 | -0.07
CN1CCN(S(=O)(=O)c2cccc(C(=O)O)c2)CC1
    0.03 | 0
COc1ccccc1S(=O)(=O)Nc1cccc(-c2nnc3n2CCCCC3)c1
    0.85 | 1.92
Cc1ccccc1OCC(=O)NCCN(C)C
    0.09 | 0.19
COCc1[nH]nc2c1C1(CCSCC1)C(C#N)=C(N)O2
    1.45 | -2.1
Cc1cccc(-n2ncc3c(NCc4ccc5c(c4)OCO5)ncnc32)c1
    0.02 | 0.15
CCN(CC)S(=O)(=O)c1ccc(-c2nnc(SCC(=O)c3ccc(OC)cc3)o2)cc1
    0.59 | -1.22

Next part.
Below each compound – KCNQ2 pot | KCNQ2 pot baseline
Cc1cc(-c2nnc(SCC(=O)Nc3ccc(F)cc3)n2N)n[nH]1
    2.46 | -0.53
COc1ccc(S(=O)(=O)N(CCC(=O)O)Cc2ccccc2)cc1
    0.11 | 0.83
O=C(NCCCCO)C(F)(F)C(F)(F)C(F)(F)C(=O)NCCCCO
    0.27 | 0.08
O=C(Cn1nc(C(=O)O)c2ccccc2c1=O)c1c[nH]c2ccccc12
    1.73 | 1.05
Cc1c(N=Cc2ccncc2)c(=O)n(-c2ccccc2)n1C
    0.5 | 0.39
Cc1nn(Cc2ccccc2)c(Cl)c1/C=N/NC(=O)CNc1cccc(C(F)(F)F)c1
    0.02 | 0.01
Cc1ccnc(NC(=O)c2ccc([N+](=O)[O-])s2)c1
    1.35 | 0.81
C=CCN1C(=O)/C(=C\c2ccc(Cl)cc2)N=C1SCC(=O)NCCC
    0.91 | 0.34
CCN(CC)CCNC(=O)c1ccc(CS(=O)(=O)c2ccc(Br)cc2)o1
    0.24 | -0.4
Cc1nnc(SCC(N)=O)n1CCc1ccccc1
    0.34 | -0.04

Single values from above:
CC1CCN(S(=O)(=O)c2ccc(NC(=O)CNC3CCCCC3)cc2)CC1 in KCNQ2 pot = 0.52
Cc1cnc(C(=O)OCC(=O)c2ccc(Br)s2)cn1 in KCNQ2 pot baseline = -0.07

More structures follow:
Below each compound – KCNQ2 pot | KCNQ2 pot baseline
Cc1ccc(S(=O)(=O)N2CCOCC2)cc1NC(=O)Cn1ccsc1=N
    0.59 | -0.05
COc1ccc(-c2cnn(C3CCS(=O)(=O)C3)c2N)cc1 (configuration not stated)
    1.41 | 1.99
O=C(Nc1nccs1)C1CCCN1/C=C/C(=O)C(F)(F)F (configuration not stated)
    1.22 | 0.69
CCCC(=O)Nc1c(-c2ccccc2)c(=O)c(C)nn1-c1ccccc1
    0.68 | -0.91
CCCC(c1nnnn1Cc1ccco1)N1CCN(C2CCCC2)CC1 (configuration not stated)
    0.59 | -0.37
CCN1CCN(CC(=O)N2N=CCC2c2ccccc2)CC1 (configuration not stated)
    2.38 | 0.12
CC(C)C[C@H](NC(=O)c1[nH]cnc1C(=O)N[C@@H](Cc1ccccc1)C(=O)OCc1ccccc1)C(=O)OC(C)(C)C
    0.15 | 0.02
COc1ccc(C(=O)Nc2ccc(Oc3ncnc4sc(-c5ccccc5)cc34)cc2)cc1OC
    1.83 | -0.02
Cc1cc(=O)[nH]c(-c2ccccc2O)n1
    0.13 | -0.01
CCSc1nnc(SCC(=O)N2CCN(C(=O)c3ccco3)CC2)s1
    2.09 | 0.46
O=C(COC(=O)c1cc(=O)[nH]c2ccccc12)NCc1cccs1
    0.98 | -0.96
CC(=O)Cc1nsc(NC(=O)c2ccc(COc3ccc(C)cc3)o2)n1
    1.36 | -0.01
CCn1ccnc1CNC(=O)CC1C(=O)NCCN1CCCc1ccccc1 (configuration not stated)
    1.38 | -0.15
CCOc1ccc(OCC)c(NC(=O)CSc2nc3ccccc3c(=O)n2C)c1
    0.9 | -1.91
O=C(Cc1ccc(F)cc1)Nc1ccc(F)c([N+](=O)[O-])c1
    0.59 | -1.14
CC(C)(C)NC(=O)Cc1ccc(Cl)c(Cl)c1
    0.11 | 0.36
CCN(CC)S(=O)(=O)c1ccc(C(=O)NCc2ccc3c(c2)OCO3)cc1
    2.21 | 0.21
COc1cc2c(cc1NC(=O)CSCC(=O)O)oc1ccccc12
    1.67 | 1.09
CC1CCCCN1CCNC(=O)C1CC(=O)N(c2ccc(F)c(Cl)c2)C1 (configuration not stated)
    2.03 | 1.06
Cc1ccc(-c2csc(=S)[nH]2)cc1
    22.5* | -1.19*
CCOC(=O)c1cnc2ccc(OCC)cc2c1NCc1cccnc1
    1.2 | 0.92
COc1ccc(NC(=O)CSc2nncs2)cc1OC
    1.18 | 0.59
O=C(CC1C(=O)NCCN1C/C=C/c1ccccc1)NCCc1cnccn1 (configuration not stated)
    0.11 | 0.01
Cc1cc(-n2ccc(=O)[nH]c2=O)nc(-c2ccccc2)n1
    0.01 | 0.16
O=C(CCC(=O)Nc1ccc(F)cc1)N/N=C/c1ccc(F)cc1
    0.85 | 0.3
COc1cccc(C(=O)N2CCC(n3nccc3NC(=O)CCOc3ccccc3)CC2)c1
    0.79 | 1.33
O=[N+]([O-])c1cccc(C2=NCCS2)c1
    0.32 | 0.12
CCOc1ccc(CN2CCNC(=O)C2CC(=O)NCc2csc(C(C)C)n2)cc1 (configuration not stated)
    0.67 | 0.99
CSc1ccccc1OCc1cc(C(=O)NCCN2CCCc3ccccc32)no1
    0.98 | -0.87
O=C1CNC(=S)N1CCCc1ccccc1
    0.29 | 1.81

An excerpt; count on the stated rates, not on these rows.
